Mtb H37Rv: M. tuberculosis H37Rv growth inhibitors, H37Rv strain (AID 1626); M. tuberculosis H37Rv growth inhibition; higher % means a stronger effect; inhibition, % at 10 µM; hits with a dose series show IC50 in µM; actives 0.95% (n = 220,000);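 active = confirmed in a dose series; inconclusive = inhibition above 80% but not taken into the dose series; inactive = below 80% or under 30% at every dose of the series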;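 note: bacteria incubated seven days before Alamar blue readout; 0% = bacteria only wells and 100% = bacteria with antibiotic wells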
Arbovirus inh: arbovirus infection inhibition. arbovirus infection cell-based antiviral screen. inhibition, % at 10 µM. actives 0.37% (n = 200,000);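 active = inhibition from about 30%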;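 note: bluetongue infection of BSR cells; cell survival read as ATP light after 72 h; 0% = infected wells without compound and 100% = uninfected wells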
YopH inh: YopH (Yersinia) phosphatase inhibition; fluorescence Ex485/Em525; inhibition, %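 (about 10 µM by stock and volumes)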; actives 0.16% (n = 140,000);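 active = inhibition of 50% or more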;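 note: controls were vehicle for no effect and minimum signal wells for full effect; inactives centre near -20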
Mtb bLac sens: beta-lactam sensitization of Mtb H37Rv; inhibition, % at 25 µM; actives 0.27% (n = 330,000); AID 434955; M. tuberculosis H37Rv growth with meropenem, percent inhibition; hits of this screen are not shown here;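 active = about 74% or more and at least 40 points above the plate without the antibiotic, then above 30% in a dose series; inconclusive = first-round hits that could not be retested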;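 note: growth measured after seven days incubation then overnight dye step; 0% = bacteria only wells and 100% = bacteria with antibiotic; twin plates without the antibiotic show which effects depend on it; some results filed as inactive read as strong as hits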
RecA splice inh: inhibitors of M. tuberculosis RecA intein splicing; cell-free RecA intein splicing, fluorescence; inhibition, %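 (about 9 µM by stock and volumes)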; actives 0.75% (n = 290,000); in the data active = inhibition above about 30%; inconclusive = no clear call, values can overlap the other calls;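 note: 0% = vehicle wells and 100% = reference inhibitor control wells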
Target sequence (P9WHJ3 whole entry, looked up, canonical isoform): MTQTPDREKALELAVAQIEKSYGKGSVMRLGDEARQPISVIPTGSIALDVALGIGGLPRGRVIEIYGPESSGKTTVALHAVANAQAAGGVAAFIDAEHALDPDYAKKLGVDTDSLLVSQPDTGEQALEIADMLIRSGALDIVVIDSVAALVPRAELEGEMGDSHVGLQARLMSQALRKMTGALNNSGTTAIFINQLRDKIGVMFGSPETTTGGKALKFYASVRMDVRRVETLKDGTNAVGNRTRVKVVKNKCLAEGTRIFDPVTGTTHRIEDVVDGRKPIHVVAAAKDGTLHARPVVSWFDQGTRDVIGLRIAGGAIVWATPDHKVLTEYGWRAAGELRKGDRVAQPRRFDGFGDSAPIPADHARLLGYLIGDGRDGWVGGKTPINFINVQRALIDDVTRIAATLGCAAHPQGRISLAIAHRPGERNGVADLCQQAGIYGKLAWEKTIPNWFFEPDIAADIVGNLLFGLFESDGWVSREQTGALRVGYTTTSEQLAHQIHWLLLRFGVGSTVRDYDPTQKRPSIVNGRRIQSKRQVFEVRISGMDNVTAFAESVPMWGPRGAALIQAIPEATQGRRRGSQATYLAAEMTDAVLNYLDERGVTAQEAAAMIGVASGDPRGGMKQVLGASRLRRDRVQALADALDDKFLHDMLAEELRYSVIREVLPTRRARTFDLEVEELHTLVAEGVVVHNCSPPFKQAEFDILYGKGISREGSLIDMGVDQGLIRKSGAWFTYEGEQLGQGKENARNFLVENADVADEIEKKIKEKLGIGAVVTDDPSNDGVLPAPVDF
Arbovirus inh repeat: second read-out of Arbovirus inh, no call of its own (marks repeat the call); inhibition, %; measured here: 10K subset replicate screen; many hits read low in the repeat;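 first of two repeat runs on a subset; 0% = infected and 100% = uninfected wells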
Starred values were filed as active, the others as inactive; u = inconclusive; x = no result given. Not all compounds are listed, so the mix of outcomes need not match the whole.

SMILES | Mtb H37Rv | Arbovirus inh | YopH inh | Mtb bLac sens | RecA splice inh | others
COc1ccc(NC(=O)c2ccc3c(=O)n4c(nc3c2)CCCCC4)cc1 | x | x | x | -2 | -0.5
COC(=O)c1cccc(/C=N/NC(N)=S)c1O | 79% | x | x | 95 | -62
CC1Cc2ccccc2N1C(=O)CO/N=C/c1ccc(OC(F)F)cc1 (configuration not stated) | 4% | 28 | -14 | 4 | -2.5
COc1ccc(CCNCc2cc3ccc(C)cc3[nH]c2=O)cc1OC | x | x | x | 4 | -1.3
Cc1oc2ccc(O)cc2c1C(=O)c1ccc(Cl)cc1 | 7% | 3 | -19 | -3 | 6.8
O=C(NCCCN1CCN(c2cccc(Cl)c2)CC1)C1(S(=O)(=O)c2ccc(Cl)cc2)CC1 | -4% | -2 | -1 | -2 | x
NC(=O)[C@@H]1CC2(CC(c3cccc(NC(=O)[C@H]4CCC(=O)N4)c3)=NO2)CN1C(=O)COc1ccc(Cl)cc1 (some centres not stated) | -7% | x | x | -4 | -3.5
CC1CCCCN1C(=O)Cn1cnc2cc([N+](=O)[O-])ccc2c1=O (configuration not stated) | 3% | 2 | x | -4 | -3.9
CCN(CC)CCNC(=O)c1ccc(N2CCCCC2)c(NS(=O)(=O)c2ccc(C)cc2)c1 | 6% | -9 | 9 | -20 | -0.9
CCc1cccc(CC)c1NC(=S)/C(=C(\[O-])c1ccc(Cl)s1)[n+]1ccccc1 | 1% | 9 | x | 9 | 4.4
c1ccc(-c2nnc(CN3CCCCC3)o2)cc1 | x | x | x | 3 | 0.1
CCOc1ccc(OCC)c(NC(=O)CCS(=O)(=O)c2ccc(Br)s2)c1 | -9% | -1 | -17 | 10 | 3.4
c1ccc(-c2noc(CN3CCCC(OCc4ccccn4)C3)n2)cc1 (configuration not stated) | -5% | 5 | x | -3 | 0.9
CCOc1ccc(OCC(=O)OCC(=O)NNC(=O)c2ccc([N+](=O)[O-])cc2)cc1 | x | x | x | 40 | 1.1
Cc1ccc(S(=O)(=O)N(C)C)cc1NC(=S)NC(C)CCC(C)C (configuration not stated) | -5% | -3 | -26 | -4 | 2.2
O=C(Nc1ccccc1-c1ccccc1)c1ccccc1Br | x | x | x | -1 | 4.6
CCN1C(=O)/C(=C2\Sc3ccccc3N2CC)OC1=S | 2% | -4 | -23 | 3 | -5.8
CCN(CCCNC(=O)c1nn(C)c2c1CS(=O)(=O)c1ccccc1-2)Cc1ccccc1 | x | x | x | 2 | -1.1
O=[N+]([O-])c1cccc(P(=O)(O)c2cccc([N+](=O)[O-])c2)c1 | -9% | x | x | -6 | x
COc1ccc(-n2nccc2-c2nn(-c3cccc(OC)c3)c(=O)n(C)c2=O)cc1 | -1% | -1 | -12 | 36 | 6.0
COc1ccc(S(N)(=O)=O)cc1C(=O)N(C)CC(=O)Nc1ccc(N2CCOCC2)cc1 | x | x | x | -10 | -3.8
O=c1[nH]c2ccsc2c(=O)n1CCO | -3% | x | x | -5 | -2.5
CC1CN(C(=O)c2cc(S(=O)(=O)N(C)c3ccc(F)cc3)ccc2Cl)CC(C)O1 (configuration not stated) | x | x | x | -6 | 0.2
CCOC(=O)c1ccc(-n2c(C)ccc2C)cc1 | 95% | -12 | -24 | 88 | 0.4
O=C(CCCSc1nc(-c2ccco2)cc(C(F)(F)F)n1)NCC1CCCO1 (configuration not stated) | 9% | -8 | -19 | 32 | x
COc1ccc(-c2c(-c3cc(OC)c(OC)c(OC)c3)noc2C)cn1 | x | x | x | -3 | 1.9
Cc1ccc(S(=O)(=O)NCCC(=O)N2CCCCCCC2)cc1C | x | x | x | -3 | 2.0
CCN1C(=O)/C(=C2\C=Cc3ccccc3N2CC)OC1=S | -5% | x | -15 | 2 | 0.6
CCOc1cc(/C=C2\N=C(C)OC2=O)cc(Br)c1OCC(=O)OC | -5% | 6 | -37 | 2 | -0.1
CC(C)=CCN1CCN(Cc2nc(C(C)C)cs2)CC1CCO (configuration not stated) | -1% | -4 | x | 4 | -15

As a short view, part of the list above.
SMILES | Mtb H37Rv | Arbovirus inh | YopH inh | Mtb bLac sens | RecA splice inh | others
O=C(CCCSc1nc(-c2ccco2)cc(C(F)(F)F)n1)NCC1CCCO1 (configuration not stated) | 9% | -8 | -19 | 32 | x
COc1ccc(-c2c(-c3cc(OC)c(OC)c(OC)c3)noc2C)cn1 | x | x | x | -3 | 1.9
Cc1ccc(S(=O)(=O)NCCC(=O)N2CCCCCCC2)cc1C | x | x | x | -3 | 2.0
CCN1C(=O)/C(=C2\C=Cc3ccccc3N2CC)OC1=S | -5% | x | -15 | 2 | 0.6
CCOc1cc(/C=C2\N=C(C)OC2=O)cc(Br)c1OCC(=O)OC | -5% | 6 | -37 | 2 | -0.1
CC(C)=CCN1CCN(Cc2nc(C(C)C)cs2)CC1CCO (configuration not stated) | -1% | -4 | x | 4 | -15

Further entries
SMILES | Mtb H37Rv | Arbovirus inh | YopH inh | Mtb bLac sens | RecA splice inh | others
Cc1cc(C)nc(-n2nc(C)c(Oc3ccccc3O)c2C)n1 | 0% | 9 | -49 | -7 | -0.3
CCC(C)(C)c1ccc(Oc2cccc(C(=O)O)c2)cc1 | -8% | x | x | -3 | 5.6
O=C(Cc1ccc(-n2c(=O)[nH]c3ccccc3c2=O)cc1)N1CCN(c2ccccc2)CC1 | -6% | 0 | 6 | -7 | 0.4
CCN1CCN(CCCNC(=O)c2ccc3c(c2)N(Cc2ccccc2)CCS3)CC1 | x | x | x | 5 | -9.6
Cn1c(SCC(=O)N2CCN(c3ccccc3)CC2)nnc1-c1cc2ccccc2o1 | 4% | -6 | 4 | 6 | 6.5
COc1cc(/C=C2/C(=N)N3C(=NC2=O)SN=C3S(=O)(=O)C(C)C)ccc1OC(=O)c1ccco1 | x | x | x | 16 | 23
O=C(Nc1ccc(N2CCOCC2)cc1)NC1CCCCC1 | -3% | 1 | -38 | -4 | -3.4 | Arbovirus inh repeat=-1
O=c1cc(N2CCCC2)c(-c2ccccc2)n[nH]1 | 4% | 3 | x | -1 | 0.5
CC/C(CC(c1ccccc1)c1c(O)c2ccccc2oc1=O)=N\NC(N)=S (configuration not stated) | 5% | -1 | -27 | 0 | -5.7
CNc1ccc(Br)cc1C(O)c1ccccc1 (configuration not stated) | -5% | x | x | -7 | x
O=C(O)C1C2C=CC3(CN(CC(O)COc4ccccc4)C(=O)C13)O2 (configuration not stated) | -1% | 2 | -31 | 13 | 1.7
Cc1ccc(Cl)cc1NC(=O)c1ccc(CSc2nnnn2C)cc1 | 10% | -21 | 11 | 4 | -0.5
Cc1cccc(C(=O)N[C@H](C(=O)Nc2cccc(S(=O)(=O)N3CCCC3)c2)C(C)C)c1 | -9% | x | x | 1 | 1.9
O=c1[nH]ncc(N2CCN(Cc3ccccc3)CC2)c1Cl | -2% | -2 | x | -9 | 0.7
Cc1ccsc1-c1nc(CN(C)C(C2CC2)C2CC2)c(C)o1 | -3% | -11 | x | -6 | -2.8
COc1cc(-c2nnc(Cn3cc(C(F)(F)F)ccc3=O)o2)cc(OC)c1OC | 5% | 5 | -40 | -7 | 1.8
COc1ccc(CN2C(=O)c3ccccc3C2C(=O)NC2CCC(C)CC2)c(OC)c1 (configuration not stated) | 1% | 14 | x | -6 | -4.2
O=C(Nc1ccc2c(c1)CCC2)c1cc(S(=O)(=O)Nc2ccc(F)cc2)c(Cl)cc1Cl | 5% | -34 | -26 | 0 | 1.8
CN(C(=O)c1cccnc1)c1nnc(-c2cccnc2)s1 | -8% | -1 | -15 | -8 | 0.5
O=C(O)CCNC(=O)c1ccc(NC(=O)Cc2ccc(Cl)cc2)cc1 | -7% | 18 | x | -8 | 3.1
Cc1ccc(-c2cc(NC(=O)c3ccccc3[N+](=O)[O-])n[nH]2)cc1 | x | x | x | 0 | 1.0
COc1ccc(NC(=O)c2ccc(NCCN3C(=O)CCC3=O)c([N+](=O)[O-])c2)cc1 | -3% | 6 | x | 2 | x
Cn1c(Cn2c(=O)sc3ccccc32)nnc1SCc1ccccc1 | 2% | 8 | -16 | u | 1.4 | Arbovirus inh repeat=-3
O=C(NCCN1CCOCC1)c1ccc(Cl)c(S(=O)(=O)N2CCCCC2)c1 | x | x | x | -3 | -0.8
Clc1nnc(N/N=C/c2ccccc2)c2ccccc12 | -5% | 6 | -17 | 33 | -2.9
CCn1c(CSc2ncccn2)nnc1SCC(=O)N1CCc2ccccc21 | x | -5 | -39 | 76 | 0.6
Cc1ccc(S(=O)(=O)N2CCC(C(=O)NC3CCCCC3C)CC2)cc1 (configuration not stated) | x | x | x | 1 | 0.0
CCCc1cc(C(=O)OC)c2ccccc2n1 | -7% | 0 | -40 | 1 | -2.0
COc1cc(C(=S)N2CCOCC2)cc(Br)c1OS(=O)(=O)c1ccccc1 | x | x | x | -1 | 4.9
Fc1ccc(C2CC(c3cccs3)=NN2C(=S)Nc2ccccc2)cc1 (configuration not stated) | 11% | -1 | -40 | -1 | 4.5
CC(=O)Nc1nc(N(C)C)nc(N(C)C)n1 | -2% | 0 | x | 0 | 1.9
O=C1CSC2=NCN(c3ccccc3)CN12 | 5% | 8 | -102 | -3 | -0.2
CCC1(c2ccccc2)C(=O)N(C)C(=O)N(C)C1=O | -11% | -2 | -11 | 4 | -0.3
Fc1ccc(N2CCN(C(c3cccs3)c3nnnn3CCc3ccccc3)CC2)cc1 (configuration not stated) | 11% | 1 | 31 | -4 | 7.4
COc1cc(CC(=O)Nc2ncc(C)s2)cc(OC)c1OC | 10% | 1 | 5 | -5 | -1.4
CCOC(=O)CSCC(=O)N1N=C(c2cccs2)CC1c1ccc(F)cc1 (configuration not stated) | 3% | 8 | -8 | 73 | 32*
O=C(c1ccccn1)c1ncc(C(F)(F)F)cc1Cl | 7% | 7 | -30 | 3 | -1.5
Clc1ccc(OCc2nn3c(C4CCCCC4)nnc3s2)c(Cl)c1 | 1% | -6 | -46 | 16 | 3.8
Cc1c(CCOC(=O)CC23CC4CC(CC(C4)C2)C3)sc[n+]1CC(=O)c1ccc(Br)cc1 | x | -42 | -18 | 10 | 24
Cc1ccc(C(=O)N/N=C/c2cn(Cc3ccccc3)c3ccccc23)cn1 | 7% | x | x | 0 | -0.2
Nc1ccc(C#Cc2ccccc2)cc1 | 8% | -16 | -35 | 50 | 1.5
N=c1sccn1CC(=O)N1CCc2ccccc21 | 1% | -1 | -2 | -4 | 0.1
Cn1c(=O)n(C)c2cc(C(=O)Nc3ccc4c(c3)OCO4)ccc21 | -17% | -11 | 24 | -8 | -2.5
COc1ccccc1C(CNC(=O)c1cccc(S(=O)(=O)Nc2ccc(C)cc2)c1)N1CCCC1 (configuration not stated) | x | x | x | 0 | -6.1
CCNC(=S)N1CCN(CC)CC1 | -2% | 1 | x | -1 | 4.2
Cc1ccc(N=Cc2cc(Cl)cc(Cl)c2O)nc1 | -3% | 0 | -24 | 2 | -1.9
Cc1nn(CC(=O)NCCCN2CCCC2)c(=O)c2nn(-c3ccccc3)c(C)c12 | x | x | x | 0 | 1.8
COCCn1nnnc1C(c1ccccc1)N1CCN(c2ccccc2)CC1 (configuration not stated) | -7% | -3 | -17 | -5 | -1.8
CCCN(C(=O)c1cccc(-n2cccc2)c1)c1c(N)n(Cc2ccccc2)c(=O)[nH]c1=O | x | x | x | -14 | 0.0
COc1ccc(C(=O)Nc2ccc3oc(-c4cccc(Cl)c4)cc(=O)c3c2O)cc1 | -6% | x | x | 5 | 3.1
CC(C)(C)c1nn2cnnc2n(/N=C/c2cccc3ccccc23)c1=O | 1% | 2 | -8 | 10 | -1.9
CC(C)(/C=N/NC(=O)CSCc1ccc(Cl)cc1)CCC#N | u | 3 | x | 47 | 0.4
COc1ccc(CN(C(=O)c2snc(C(N)=O)c2N)C(CC(C)C)C(=O)NC2CCCCC2)cc1 (configuration not stated) | x | x | x | 4 | 5.7
O=C(COc1ccc(/C=N/NC(=O)c2ccncc2)cc1)Nc1ccc([N+](=O)[O-])cc1 | x | x | x | 98 | 1.1
O=C(CSc1nc(-c2ccccc2)cc(=O)[nH]1)Nc1ccc(Br)cc1 | x | x | x | 0 | -0.5
O=C(NN1C(=O)CSC1=S)c1cccnc1 | -3% | x | x | -5 | -3.1
COc1ccc(CC2C(=O)OC(C)(C)OC2=O)cc1 | -1% | 9 | -36 | -6 | 13
Cc1c(C#N)c2ncnc(N)c2n1-c1ccccc1 | 2% | 10 | 6 | 0 | x
O=C(/C=N/O)Nc1cccnc1 | -3% | -1 | 26 | -12 | -7.3
CC1(C(=O)NC(=S)N(CCC#N)c2ccccc2)CC1(Cl)Cl (configuration not stated) | -2% | 0 | -30 | 4 | -1.6

Bioassay records deposited in PubChem by several laboratories.
